Screening data deposited in PubChem by National Center for Advancing Translational Sciences (NCATS).
2A firefly: lowers the firefly signal of an FMDV 2A StopGo reporter; HEK cells with a luciferase reporter of 2A StopGo recoding; Potency, µM (top dose mostly 57.5 µM), for the others: top-dose signal change, negative = less light; 120,000 tested, 0.23% active; AID 1745856; active = well fitted falling curve with a large enough effect; inconclusive = small, poorly fitted or top-dose-only effect; inactive = no such curve, though single readings can be large or run the other way; also: nearly all actives have a fitted effect of over 60% in size; overnight with compound
StopGo RLuc: lowers the Renilla signal of an FMDV 2A StopGo reporter; 120,000 tested, 0.32% active; HEK cells with a luciferase reporter of 2A StopGo recoding; Potency, µM (top dose mostly 57.5 µM), without a hit: at the top dose signal change, negative = less light; AID 1745857; active means well fitted falling curve with a large enough effect; inconclusive means small, poorly fitted or top-dose-only effect; inactive means no such curve, though single readings can be large or run the other way; also: nearly all actives have a fitted effect of over 55% in size; overnight with compound
Starred values were filed as active, the others as inactive; u = inconclusive; [ ] = another dose, or the depositor's remark. % is scaled to controls: 0 for no effect and ±100 for the full control effect; potency is read from the fitted curve at half-maximal effect. Not all compounds are listed, so the mix of outcomes need not match the whole.

SMILES | 2A firefly | StopGo RLuc
Cc1nn(C(C)C(=O)N2CCN(c3ccc(Cl)cc3)CC2)c(=O)c2cc3occc3n12 (centres undefined) | u | u
CCOC(=O)c1ccc(-c2ccc(/C=C(\C#N)C(=O)N3CCOCC3)o2)cc1 | 142%[activator] | 16%
CSc1cccc(NC(=O)c2ccccc2C(F)(F)F)c1 | 10% | 0%
CC1CCC2(CC1)N=C(c1ccc(Cl)c(Cl)c1)C(=S)N2 (centres undefined) | 12% | 20%
CC(C)C(=O)NC(Nc1ccc(Br)cc1)C(Cl)(Cl)Cl (centres undefined) | -1% | 31%[activator]
O=C(Nc1ccc2nn(-c3ccc(F)cc3)nc2c1)c1cccc2c(Cl)cccc12 | -9% | -10%
C=CC[N+](CC)(CC)CC#Cc1ccc(C)cc1 | -2% | 1%
CCOC(=O)c1ccc(NC(=O)CN2CCCN(Cc3ccc(OC)cc3)S2(=O)=O)cc1 | u | -20%
CCOc1ccccc1NC(=O)c1sc(-n2nc(C)c(CCC(C)C)c2C)nc1C | -9% | -24%
Cn1c(SCC(=O)Nc2nncs2)nnc1-c1ccccc1 | -4% | -8%
NC(=O)C1CCCN1C(=O)c1nn(-c2ccccc2)c(=O)c2ccccc12 (centres undefined) | 12% | 4%
O=c1cc(CNCc2ccccc2)c2ccccc2[nH]1 | 117%[activator] | 0%
O=C(Nc1ccnn1Cc1cccc(Cl)c1)C1CCN(S(=O)(=O)c2ccc(Cl)cc2)CC1 | u | -6%
CC(COc1ccccc1)N(CCCl)Cc1ccccc1 (centres undefined) | -19% | -6%
Cc1ccc(-c2csc(C3=C(O)CN(NC(=O)c4ccc(Br)cc4)C3=N)n2)cc1 | 7% | -10%
Cc1ccc(C)c(NC(=O)CSc2nc3nccnc3c(=O)n2CCc2c[nH]c3ccccc23)c1 | -5% | 1%
CCSc1ncc(Cl)c(C(=O)Nc2ccc(S(=O)(=O)N3CCC(C)CC3)cc2)n1 | u | 42%[activator]
CC(NC(=O)Cc1c[nH]c2ccccc12)c1cc2ccccc2o1 (centres undefined) | u | u
Cc1ccc(S(=O)(=O)NCCc2cccc(Cl)c2)cc1 | 4% | 219%[activator]
Cc1cc(SCC(=O)NN2C(=O)NC3(CCC(C)CC3)C2=O)nc2ccccc12 (centres undefined) | 13% | 0%
CCC(Oc1ccccc1)C(=O)Nc1nnc(S(=O)(=O)N2CCCC2)s1 (centres undefined) | -6% | 8%
CCOc1ccccc1CNS(=O)(=O)c1ccc(-c2cnc(C3CC3)o2)cc1 | u | u
C#CCCN1CCN(C(=O)Cc2nn(C)c(=O)c3ccccc23)CC1 | -8% | -18%
COc1ccc(NC(=O)CSc2nc(N3CCOCC3)c3c(c2C#N)CCCC3)cc1 | -16% | -13%
Cc1ccc(CNC(=O)c2cn(C)c3ccc(S(=O)(=O)N4CCC(C)CC4)cc3c2=O)cc1 | -2% | -12%
CC(CNC(=O)c1nnc(Cc2ccc(F)cc2)o1)c1ccccc1 (centres undefined) | 6% | -14%
COc1ccc(CNC(=O)Cn2c(=O)nc3n2C(=O)N(c2ccccc2)C3)cc1 | 5% | -4%
CC(C)Cc1nc(N2CCN(CC(=O)N3CCOCC3)CC2)c(C#N)c2c1CCC2 | -19% | -7%
CCCNc1c(NC(=O)NCc2cccc(OC)c2)c(=O)oc2ccccc12 | 0% | -1%
C=CCNC(=O)NC(=O)CN(C)CCCc1ccccc1 | -3% | -3%
COc1ccc(C(CC(=O)Nc2cccc(C)c2C)N2Cc3ccccc3C2=O)cc1 (centres undefined) | -6% | 100%[activator]
COc1cccc(CNC(=O)C2CCN(Cc3cc4ccccc4n3Cc3ccccc3)CC2)c1OC | 2% | 5%
CCCCNC(=O)c1nn(-c2ccc(C)cc2)c(=O)c2c1c1ccccc1n2C | -14% | -16%
Cc1cc2nnc(SCC(=O)Nc3ccc(F)c(Cl)c3)n2c2ccccc12 | 2% | 2%
CC1CCC(=NNC(=S)NCc2ccccc2)CC1 (centres undefined) | 32%[activator] | 29%
CCOc1ccc(NC(=O)N2CCC(c3ccc(C)cc3)C2)cc1 (centres undefined) | 0% | 4%
O=C(Nc1cccc(F)c1)c1nnc(CSCC(=O)N2CCN(c3ccccc3)CC2)s1 | 3% | -6%
CCCOc1ccc2ccccc2c1/C=C(/C#N)c1nc2ccccc2[nH]1 | 43%[activator] | 51%[activator]
Cc1ccc(C(=O)C(C)OC(=O)c2cccc(S(=O)(=O)N(C)C)c2)cc1 (centres undefined) | 11% | 22%
CN(CCc1noc(C(=O)NCc2ccccc2)n1)C(=O)Nc1ccc(F)c(Cl)c1 | 50%[activator] | 37%[activator]
Cc1nn2c(=O)cc(COC(=O)c3ccccc3NC(=O)c3ccccc3C)nc2s1 | 120%[activator] | -4%
CCCCOc1ccc(CNC(=O)c2cnc3sc(N4CCOCC4)nn3c2=O)cc1 | -8% | -10%
CC1(C)CC(=O)c2cc(C#N)c(=O)n(-c3ccc(F)cc3)c2C1 | 34%[activator] | -8%
Cc1ccc(-c2nc(NC(=O)CSc3cc(C)c4ccccc4n3)ns2)cc1 | -2% | -5%
O=C(CCc1ncc(-c2ccccc2)o1)Nc1ccccn1 | 0% | -3%
O=C(Nc1ccccc1O)c1nn(-c2ccccc2)c(=O)c2ccccc12 | 0% | 0%
Cn1c(=NC(=O)c2ccc(F)cc2)sc2cc(Br)ccc21 | 55%[activator] | -5%
Cc1cc(C)cc(-n2c(C)cc(C(=O)C(=O)Nc3ccccc3F)c2C)c1 | 1% | -14%
CN(CCNC(=O)C1CCN(CC(F)(F)F)CC1)C1CC1 | -6% | 8%
CC(C)(C)c1cc(NC(=O)c2cccc(Br)c2)no1 | 203%[activator] | 25%
Cc1cc(C)c(-c2cc(C(=O)Nc3cccc(C(F)(F)F)c3)[nH]n2)c(O)c1 | -8% | -1%
Cc1ccc2c(c1)cc1c(=O)n(Cc3ccccc3Cl)nc(C)n12 | -8% | 3%
CC(CNC1CCCCC1)OC(=O)c1ccccc1 (centres undefined) | -4% | -4%
CCOc1ccccc1C(=O)NC1(C(F)(F)F)C(=O)Nc2c1c(=O)[nH]c(=O)n2-c1ccc(F)cc1 (centres undefined) | -18% | -3%
CC(C)c1ccc(NC(=O)Cn2nnc(C(=O)NCCc3ccccc3)c2N)cc1 | -10% | -11%
Cc1ccc(C(=O)NCC(=O)N(C)Cc2ccc(-c3ccc(Br)cc3)o2)cc1 | 0% | -4%
Brc1ccc(C2=Nn3c(nnc3-c3cnccn3)SC2)cc1 | -6% | -6%
Fc1ccc(-c2cnc(CSc3nnc(N4CCCC4)s3)o2)cc1 | 16% | -7%
CCOc1ccccc1CNC(=O)CN1C(=O)CSc2ccc(S(=O)(=O)N3CCOCC3)cc21 | 8% | 80%[activator]
O=C(O)/C=C/c1ccc(-c2ccccc2)o1 | u | u

In the list so far, eleven have a Cl atom:
SMILES | 2A firefly | StopGo RLuc
Cc1nn(C(C)C(=O)N2CCN(c3ccc(Cl)cc3)CC2)c(=O)c2cc3occc3n12 (centres undefined) | u | u
CC1CCC2(CC1)N=C(c1ccc(Cl)c(Cl)c1)C(=S)N2 (centres undefined) | 12% | 20%
CC(C)C(=O)NC(Nc1ccc(Br)cc1)C(Cl)(Cl)Cl (centres undefined) | -1% | 31%[activator]
O=C(Nc1ccc2nn(-c3ccc(F)cc3)nc2c1)c1cccc2c(Cl)cccc12 | -9% | -10%
O=C(Nc1ccnn1Cc1cccc(Cl)c1)C1CCN(S(=O)(=O)c2ccc(Cl)cc2)CC1 | u | -6%
CC(COc1ccccc1)N(CCCl)Cc1ccccc1 (centres undefined) | -19% | -6%
CCSc1ncc(Cl)c(C(=O)Nc2ccc(S(=O)(=O)N3CCC(C)CC3)cc2)n1 | u | 42%[activator]
Cc1ccc(S(=O)(=O)NCCc2cccc(Cl)c2)cc1 | 4% | 219%[activator]
Cc1cc2nnc(SCC(=O)Nc3ccc(F)c(Cl)c3)n2c2ccccc12 | 2% | 2%
CN(CCc1noc(C(=O)NCc2ccccc2)n1)C(=O)Nc1ccc(F)c(Cl)c1 | 50%[activator] | 37%[activator]
Cc1ccc2c(c1)cc1c(=O)n(Cc3ccccc3Cl)nc(C)n12 | -8% | 3%

The listing continues.
SMILES | 2A firefly | StopGo RLuc
CN(Cc1cccs1)C(=O)CC1CC2CCC1C2 (centres undefined) | 52%[activator] | 22%
CCN1CCN(c2ncc3c(n2)CC(c2ccccc2O)CC3=O)CC1 (centres undefined) | -2% | -4%
FC(F)(F)c1cc(Cl)c2nnc(SCc3cccc(Br)c3)n2c1 | -10% | 3%
FC(F)Oc1cccc(-c2ccnc(=S)[nH]2)c1 | 64%[activator] | 16%
O=C(Nc1ccc2nc(SCC(=O)N3CCOCC3)sc2c1)c1ccccc1Cl | u | 39%[activator]
CCCCN(C(=S)Nc1cccc(Cl)c1)C1CCN(C(C)=O)CC1 | -6% | -11%
CCOC(=O)C1CCCN(S(=O)(=O)c2cc(-c3nc(-c4ccc(Cl)cc4)no3)sc2C)C1 (centres undefined) | 5% | -9%
O=C(CC1N=C2c3ccccc3N=C(SCC(=O)Nc3ccc(F)cc3)N2C1=O)NCc1ccco1 (centres undefined) | -26% | 1%
O=C(Nc1ccc(Cl)cc1)c1ccc2c(c1)CCC2 | 193%[activator] | 19%
O=[N+]([O-])c1ccc(N/N=C/c2ccccc2Br)cc1 | 37%[activator] | -9%
Cc1ccc2[nH]c(C)c(CCN(Cc3ccncc3)C(=S)NC(C)(C)C)c2c1 | -16% | -6%
COc1ccc(NC(=O)C2=C(C)Nc3ncnn3C2c2ccccn2)cc1 (centres undefined) | -1% | -12%
Cc1cc(=O)oc2cc(OC(C)C(=O)NC3CC(C)(C)NC(C)(C)C3)ccc12 (centres undefined) | 4% | -5%
O=C(c1cc2c(s1)CCCCC2)N1CCN(c2nccs2)CC1 | 153%[activator] | 5%
Cc1ccc(OCC(=O)N(Cc2ccc(N(C)C)cc2)CC2CCCO2)cc1C (centres undefined) | -12% | 53%[activator]
CSCc1ccc(C(=O)NCc2ccco2)cc1 | 88%[activator] | 55%[activator]
CCOC(=O)c1cnc(Nc2ccccc2)c2ccccc12 | 40%[activator] | 5%
COc1ccc(OC)c(C(C)NC(=O)CSC(C)(C)C)c1 (centres undefined) | 3% | 8%
CCOc1ccc(CCNC(=O)c2ccc(Cn3c(=O)c4cccn4c4cccnc43)cc2)cc1 | -6% | -3%
COc1ccc(CNC(=O)CN2CCSc3ccccc32)c(OC)c1 | 79%[activator] | 19%
COc1ccccc1NC(=O)CN(C)S(=O)(=O)c1ccc2c(c1)c(=O)n(C)c(=O)n2C | -13% | -11%
C=C(C)Cn1c(SCC(N)=O)nc2c1c(=O)n(C)c(=O)n2C | -1% | 14%
CSCCC(NC(=O)Cc1ccc2c(c1)CCCC2)c1nc2ccccc2[nH]1 (centres undefined) | -9% | -4%
CCOc1ccc(Nc2cc(C)nc3ccc(Cl)cc23)cc1 | -7% | -19%
COc1ccc2nc(C)c(C(=O)N(C)CC34CC5CC(CC(C5)C3)C4)cc2c1 | -4% | -13%
CCCCn1nc(C(=O)Nc2cccc(C(=O)NC3CC3)c2)c2ccccc2c1=O | 15% | 31%[activator]
CN(C)CCCNc1oc(-c2ccco2)nc1S(=O)(=O)c1ccc2c(c1)OCCO2 | 15% | 35%[activator]
Cc1ccccc1-c1nnn(Cc2cc(=O)n3ccsc3n2)n1 | 30% | 21%
Cc1ccc(Cl)cc1NC(=O)C1CCCN(S(=O)(=O)c2c(C)noc2/C=C/N(C)C)C1 (centres undefined) | -17% | -2%
COc1ccc(NC(=O)N2CCC(N(C)S(C)(=O)=O)CC2)cc1 | 49%[activator] | -6%
CC(C)OCCCn1c(=O)c2ccccc2n2c(-c3ccccc3)nnc12 | -9% | 2%
CCCCn1c(=O)[nH]c(=O)c2c1nc(CCc1ccccc1)c(=O)n2CCCC | -8% | 0%
C=CCOc1ccc(C(=O)Nc2ccccc2C(C)C)cc1 | 16% | 5%
Cn1c(=O)c2c(nc(SCC(=O)O)n2Cc2ccc(F)cc2Cl)n(C)c1=O | 4% | -7%
Cc1ccccc1S(=O)(=O)Cc1ccc(C(=O)N2CCN(c3cccc(Cl)c3)CC2)o1 | u | u
COc1ccc(C2CC2(C#N)C(=O)Nc2ccc(Cl)cc2Cl)cc1 (centres undefined) | -1% | -20%
CCC(C)NC(=O)CN1C(=O)COc2ccc(S(=O)(=O)N3CCOCC3)cc21 (centres undefined) | -5% | -9%
CCCCS(=O)CCC(=O)O (centres undefined) | 37% | 39%[activator][1.06 µM]
COc1cccc(/C=C/C(=O)Oc2ccc(C#N)cc2OC)c1 | 28% | 4%
Cc1cc2c(cc1S(=O)(=O)CCC(=O)N1CCCC(C)C1)OCC(=O)N2 (centres undefined) | -14% | -8%
NC(=O)c1ccc(Sc2ccc(Cl)cc2)nc1 | 97%[activator] | 17%
Oc1c(C(c2ccccc2)N2CCC3(CC2)OCCO3)sc2nc(-c3ccco3)nn12 (centres undefined) | 21% | 131%[activator]
Cc1cc2n(n1)CCCN2C(=O)Nc1ccccc1F | 7% | -9%
CC(C)(C)c1ccc(C(=O)N/C(N)=N/c2nc3ccccc3o2)cc1 | -3% | -10%
Cc1ccc(NC(=O)CN2C(=O)c3cccnc3Sc3ccccc32)cc1C | 77%[activator] | -3%
Cc1cccc(NC(=O)C2(c3cccc(Br)c3)CC2)n1 | -1% | -2%
O=C(CSc1nnc(-c2ccncc2)n1-c1ccc(Cl)cc1)Nc1ccc2cn[nH]c2c1 | 21% | 4%
COc1cc(NC(=O)Cn2c(=O)cc(C)c3c(C)nn(-c4ccc(C)cc4)c32)cc(OC)c1 | -12% | -15%
CCCCc1cc(=O)oc2cc(OCC(=O)NCc3ccncc3)ccc12 | 14% | 15%
